Choline anaer gr = blocks anaerobic gram-negative growth on choline | Gram-negative bacterium anaerobic choline minimal medium, absorbance growth; hits give low values; many inactives read as strong as hits in the columns shown | calls only | 0.2% of 55,000 active | AID 1963822;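 active = growth z-score on choline under -2 at 7 or 20 h with little or no fall on glycerol, limits in tiers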;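 also: stock transfer was 300 nL into about 50 µL; the organism is E. coli; final concentration not given here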
Choline anaer gr early = further read-out of Choline anaer gr, marked with its call; z-score; measured here: choline growth z-score, timepoint 1;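 score of optical density at 7 h as mean of two plates; lower means less growth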
An asterisk follows results filed as active; i = inactive; & = joins results of further samples. An excerpt; the hit share may differ from the screen's.

SMILES	Choline anaer gr	Choline anaer gr early
CCCc1cc(=O)n2nc(N3CCCC3C(=O)Nc3ccc(Br)cc3F)sc2n1 (stereo not given)	i	0.42
Cc1cccc(CSC2=NS(=O)(=O)c3cc(F)ccc3N2)c1	i	0.31
O=C(Nc1ncn[nH]1)C1CC1	i	-0.82
Cc1cccc(C(=O)Nc2nc(-c3ccccc3)ns2)c1	i	-1.2
COc1ccc(C2(C(=O)N3CCCC(c4nc(-c5ccc(NC(C)=O)cc5)no4)C3)CC2)cc1 (stereo not given)	i	0.45
CN(C)c1ncc(NS(=O)(=O)c2cc(F)ccc2F)cc1C(=O)O	i	0.21
COc1ccc(OCC(=O)Nc2noc(-c3ccc(Cl)cc3)n2)cc1	i	-1.1
COc1ccc(OCC(=O)N2CC(OCc3ccc(Cl)cc3)C2)cc1	i	0.81
COc1ccc(OCC(=O)NCCc2csc(-c3ccccc3)n2)cc1	i	0.15
Cc1occc1-c1nnc(SCC(=O)NCCc2nc3ccccc3[nH]2)o1	i	-2.3
COc1cc(CSc2nc3c(cnn3-c3ccc(Cl)cc3)c(=O)[nH]2)cc(OC)c1	i	0.7
CCC(C)NC(=O)CSCc1nnc(C(=O)Nc2ccc(OC)cc2)s1 (stereo not given)	i	-1.2
CCC(C)(C)NS(=O)(=O)c1cc(-c2nc(C)cs2)n(CC(=O)N2CCCCC2)c1	i	-0.35
Cc1cccc(C)c1NC(=O)c1c(-c2ccccc2Cl)noc1C	i	0.47
CCOc1ccc(S(=O)(=O)N2CCCC2)cc1-c1nc(C)no1	i	-1.3
CCOC(=O)C1CCN(C(=O)CCc2nc(N3CCCCC3)c3c(CC)noc3n2)CC1	i	-0.62
Cc1noc(Cn2c(=O)c3cc4c(cc3n(CC(=O)NCc3ccccc3)c2=O)OCO4)n1	i	-0.16
Cc1nnc2ccc(NC3CCCC3)nn12	i	0.14
Cc1nc(-c2csc(S(=O)(=O)Nc3ccc(Cl)cc3)c2)no1	i	0.25
CC(=O)Nc1c(C)nn(-c2ccccc2)c1N1CCC(C(=O)N2CCc3ccccc32)CC1	i	0.05
CN1C(=O)C(c2c(-c3ccccc3)[nH]c3[nH]c(=O)[nH]c(=O)c23)c2ccccc21 (stereo not given)	i	0.78
CCOc1ccc(CNC(=O)CCCn2ccc3cc(S(=O)(=O)N4CCCC4)ccc32)cc1	i	0.53
CCCNC(=O)Nc1ccc(-c2noc(-c3ccc(N(C)C)cc3)n2)cc1	i	-1.4
CN(CCNC(=O)c1ccc(CN2C(=O)C3CCCN3C(=O)c3ccccc32)cc1)Cc1ccccc1 (stereo not given)	i	1.2
O=c1n(Cc2cccc(F)c2)nc2c(S(=O)(=O)N3CCc4ccccc4C3)cccn12	i	-0.11
Cc1onc(-c2ccccc2Cl)c1C(=O)N1CCN(c2ccc(Nc3ccccc3)nn2)CC1	i	0.98
COC(=O)c1ccc2c(=O)n(-c3cc(C)cc(C)c3)c(N3CCCC3)nc2c1	i	-2.5
COc1ccc(NC(=O)CSc2nc3c(c(=O)[nH]2)CN(Cc2ccccc2)CC3)cc1	i	-0.84
CCOC(=O)C1=C(C)NC(=S)NC1c1cccc(O)c1 (stereo not given)	i	0.66&0.08
O=c1c2sccc2nc(SCc2nc(-c3ccccn3)no2)n1C1CC1	i	0.45
CN1CCN(C(=O)c2cc3c(s2)-c2ccccc2SC3)CC1	i	-1.8
O=C(NCCc1csc2nc(-c3cccc(F)c3)nn12)c1ccc(Br)cc1	i	1.6
CCOc1ccc(-c2nc3c([nH]2)c(=O)n(C)c(=O)n3C)cc1OC	i	-0.58
Cn1ncc2c(Nc3ccc(F)c(Cl)c3)ncnc21	i	-0.09
CC(=O)N1CCCSc2ccc(S(=O)(=O)Nc3ccc(NC(=O)c4ccccc4)c(C)c3)cc21	i	0.24
Cc1ccc2nc3c(cc2c1)CCN3C(=O)c1ccc(S(=O)(=O)N2CCCC2)cc1	i	0.52
Cc1nn(-c2ccc(Cl)cc2)c2sc(C(=O)O)cc12	i	0.01
CC(C)NC(=O)Cn1c(=O)nc(-c2ccccc2)c2ccccc21	i	0.5
Cc1c(C(=O)Nc2ccc(Br)cc2)sc2nc(-c3ccc(F)cc3)cn12	i	-0.52
CCCCS(=O)(=O)N1CCCN(C2=NS(=O)(=O)C(c3ccc(F)cc3)=C2C)CC1	i	0.5
O=C1COc2ccc(S(=O)(=O)N3CCCC(C(=O)N4CCc5ccccc54)C3)cc2N1 (stereo not given)	i	-0.65
Cc1c(CCNC(=O)C(C)(C)C)sc2nc(-c3ccc(F)cc3)nn12	i	-1.6
CC1(C)CN(CC(=O)N2CCCC2)c2ccc(S(=O)(=O)Nc3ccc(S(N)(=O)=O)cc3)cc21	i	-0.64
Cc1csc2ncc(C(=O)N3CCC(C)CC3)c(=O)n12	i	0.29
CCC(C)n1nnc2cc(S(=O)(=O)N(C)CC(=O)N3CCN(c4ccccc4)CC3)ccc21 (stereo not given)	i	0.1
CCN1CCN(C(=O)c2n[nH]c3c2CCCCCC3)CC1	i	0.08
COc1ccc(CSc2nccc3c2ccn3CC(=O)NCc2ccc3c(c2)OCO3)cc1	i	1.3
Cc1ccc(S(=O)(=O)Nc2ccc3nncn3n2)c(C)c1	i	-0.24
Cn1c(SCC(=O)c2ccc3c(c2)CCCO3)nnc1-c1ccc2c(c1)OCCCO2	i	-0.3
Cc1cccc(-n2c(Cc3cccn3C)nnc2SCC(=O)NCC2CCCO2)c1C (stereo not given)	i	-0.18
Cc1ccc(-c2n[nH]c(CCNS(=O)(=O)c3ccccc3F)n2)cc1	i	-1.9
CCOC(=O)C1CCN(c2c(NCCCN(C)C3CCCCC3)c(=O)c2=O)CC1	i	0.38
CCOc1ccc(NC(=O)N2CCCC2c2cc(C)no2)cc1 (stereo not given)	i	-0.45
COC(=O)C1CCN(C(=O)Cc2csc(NC(=O)Nc3ccccc3)n2)CC1	i	-1
CC(=O)N1CCSc2ccc(S(=O)(=O)Nc3cc(F)ccc3F)cc21	i	0.26
CC(=O)OCC(=O)[C@@]1(O)[C@@H](C)CC2C3CCC4=CC(=O)C=C[C@]4(C)[C@@]3(F)[C@@H](O)C[C@@]21C (stereo not given in full)	i	0.63
Cc1ccc(S(=O)(=O)Nc2cc3[nH]c(=O)[nH]c3cc2Cl)c(C)c1	i	0.64
O=C(Nc1ccc(F)cc1F)c1cc(S(=O)(=O)N2CCCCC2)ccc1Cl	i	0.08
CCOC(=O)c1ccc2c(c1)N(Cc1ccc(C)cc1)C(=O)c1ccccc1S2(=O)=O	i	2.1
CNc1nc(C(N)=O)c(NC(=O)COc2ccc(F)cc2)s1	i	-0.7

2 of these compounds, reformatted:
Below each SMILES: Choline anaer gr, Choline anaer gr early
- CCOC(=O)c1ccc2c(c1)N(Cc1ccc(C)cc1)C(=O)c1ccccc1S2(=O)=O
    i, 2.1
- CNc1nc(C(N)=O)c(NC(=O)COc2ccc(F)cc2)s1
    i, -0.7

Continuation:
SMILES	Choline anaer gr	Choline anaer gr early
CSc1ccc(NC(=O)C2CC(=O)N(c3ccc4c(c3)CCN4C(=O)C3CC3)C2)cc1 (stereo not given)	i	1.1
CN(C)C(=O)c1ccc2c(c1)nc(CN(C)S(=O)(=O)c1cc(F)cc(F)c1)n2C	i	-1.9
Cn1cnc(S(=O)(=O)N2CCCC(C(=O)NCc3ccc(Cl)cc3)C2)c1 (stereo not given)	i	0.95
O=c1cc(-c2ccccc2)nc(N2CCCCC2)[nH]1	i	1.1
CCN(C(=O)c1c(C)oc2ncnc(N3CCCCC3)c12)c1ccccc1C	i	1.1
COc1ccccc1NC(=O)Cn1nc2c3sccc3ncn2c1=O	i	-2.1
O=C(Cn1c(=O)n(-c2ccc(CC(=O)NC3CC3)cc2)c(=O)c2ccccc21)Nc1ccc2c(c1)OCO2	i	0.97
CCC(C)NC(=O)Cn1cnc2nc(N3CCCC(C(=O)NC4CC4)C3)sc2c1=O (stereo not given)	i	-1.1
O=C(CC1CCN(C(=O)c2cc3cc(Cl)ccc3[nH]2)CC1)N1CCCCC1	i	0.43
Cn1ccc2cc(S(=O)(=O)N3CCN(C(=O)Nc4ccccc4Cl)CC3)ccc21	i	-0.68
CSc1ccc(-c2noc(CSc3ccc(-c4ccc5c(c4)OCO5)nn3)n2)cc1	i	1.6
CN(C)CCCn1c(=O)c2cnc(-c3cccs3)nc2n(C)c1=O	i	-1
COCCNC(=O)C1c2ccccc2C(=O)N1Cc1ccc(OC)cc1 (stereo not given)	i	-0.08
Cc1ccc(Nc2cc(C(C)C)nc3nc(-c4cccnc4)nn23)c(C)c1	i	-0.67
O=C(Nc1ccc2c(c1)OCO2)C1CCN(Cc2cc3ccccc3n2Cc2cccc(F)c2)CC1	i	-0.39
O=C(NCc1ccccn1)c1cc(=O)nc2sc(N3CCCCC3)nn12	i	-1.1
O=c1cc(CN(CCO)Cc2ccccc2)nc2nc(-c3ccccc3)[nH]n12	i	0.11
CC1(C)CC1C(=O)NC(=CCCCCSCC(N)C(=O)O)C(=O)O (stereo not given)	i	0.51
CCCCC1CCC(C(=O)NCC2(N(C)C)CCCCC2)CC1 (stereo not given)	i	-0.08
O=C(NCCN1CCOCC1)c1cc2n(n1)CCCN(Cc1cccc(F)c1)C2=O	i	-0.64
Cc1ccc(C2CCCN2C(=O)c2cc(C)no2)cc1 (stereo not given)	i	-0.36
O=C(Cn1nc(C(=O)N2CCCC2)ccc1=O)NCC1CCCO1 (stereo not given)	i	-0.24
Cc1[nH]c(C)c(S(=O)(=O)N2CCC(C(=O)NC3CCCc4ccccc43)CC2)c1C(=O)N1CCCC1 (stereo not given)	i	-1.4
CC1CNc2ccccc2N(Cc2ccc(Br)cc2)C1=O (stereo not given)	i	-0.63
COc1ccc(CC(=O)N(Cc2nc3nc(C)cc(C)n3n2)c2ccc(C)cc2)cc1OC	i	-0.59
CCC(CC)C(=O)NCC(c1ccc(Br)cc1)c1c[nH]c2ccccc12 (stereo not given)	i	1.4
CCC(C)(C)C(=O)N1CCCN(C2=NS(=O)(=O)C(c3ccc(C)cc3)=C2C)CC1	i	0.38
Cc1cc(C)c2c(n1)sc1c(=O)n(CC(=O)Nc3ccc(C(C)C)cc3)cnc12	i	-0.14
COc1ccc(NC(=O)CN2C(=O)COc3ccc(C(C)(C)C)cc32)cc1NC(=O)c1ccccc1	i	-0.23
Cc1[nH]nc(-c2c(C)sc(C)c2S(=O)(=O)NC2CCC(C)CC2)c1C (stereo not given)	i	-0.95
Cc1ccc(NC(=O)Cn2cnc3c(sc4ccccc43)c2=O)cc1F	i	0.76
O=c1[nH]cccc1-c1nc(-c2ccccc2Br)no1	i	0.22
COc1cccc(NC(=O)C2CCCN(c3ncnc4nn(-c5ccccc5)cc34)C2)c1 (stereo not given)	i	1.4
O=C(CNS(=O)(=O)c1cc(-c2noc(C3CCC3)n2)cs1)Nc1ccc2c(c1)OCO2	i	1.2
CCCN(CCC)CCc1cccc2c1CC(=O)N2	i	0.2&-0.03
COCCCN1CCc2nc(SCc3cc(C)ccc3C)[nH]c(=O)c2C1	i	-1.1
O=C(NCc1ccc2c(c1)OCO2)c1cccc(Nc2ncc(-c3cccc(F)c3)cn2)c1	i	0.18
CC(=O)NCc1nnnn1-c1ccc(C)c(C)c1	i	-0.27
Nc1nc2c(c(=O)[nH]1)C(c1ccc3c(c1)OCO3)CC(=O)N2 (stereo not given)	i	-0.79
Cc1cc(N2CCCC2)nc2ccc(NC(=O)c3ccncc3)cc12	i	-1.2
CN1C(=O)Cc2cc(S(=O)(=O)CCC(=O)Nc3ccc4c(c3)OCO4)ccc21	i	0.64
COc1ccc(NC(=O)C2CCCN(S(=O)(=O)c3ccc4c(c3)CCCC(=O)N4)C2)cc1OC (stereo not given)	i	1.1
CC(C)(C)NC(=O)C1CCN(c2ncc(-c3ccccc3)cn2)CC1	i	0.45
CCn1nnc2c(NCCC(C)C)ncnc21	i	-1.4
COc1ccccc1N1CCN(S(=O)(=O)c2ccc3c(c2)C(C)(C)C(=O)N3C)CC1	i	-0.8
CN(C)c1ccc(C(=O)N2CCN(c3ccccc3)CC2)cc1S(=O)(=O)N(C)C	i	0.12
O=c1cc(N2CCNCC2)oc2c(-c3ccccc3)cccc12	i	-0.09
CCOC(=O)c1c(C)[nH]c(CN(Cc2ccc(C)cc2)S(=O)(=O)c2c(C)noc2C)c1C	i	1.8
O=C(CCc1nc2sc3c(c2c(=O)[nH]1)CCCCC3)Nc1ccc(Cl)cc1	i	0.94
CCS(=O)(=O)N1CCC(N2CCN(Cc3ccc(F)cc3)C(=O)C2=O)CC1	i	-0.45
Cc1cc(C)c2c(-n3cccc3)nn(CCCC(=O)Nc3ccccc3Cl)c2n1	i	0.37
O=C(CCn1cnc2cc(S(=O)(=O)N3CCCC3)ccc21)NCc1cccnc1	i	1.6

By substructure: the compounds so far with two or more sulfur atoms
SMILES	Choline anaer gr	Choline anaer gr early
Cc1cccc(CSC2=NS(=O)(=O)c3cc(F)ccc3N2)c1	i	0.31
CCC(C)NC(=O)CSCc1nnc(C(=O)Nc2ccc(OC)cc2)s1 (stereo not given)	i	-1.2
CCC(C)(C)NS(=O)(=O)c1cc(-c2nc(C)cs2)n(CC(=O)N2CCCCC2)c1	i	-0.35
Cc1nc(-c2csc(S(=O)(=O)Nc3ccc(Cl)cc3)c2)no1	i	0.25
O=c1c2sccc2nc(SCc2nc(-c3ccccn3)no2)n1C1CC1	i	0.45
CN1CCN(C(=O)c2cc3c(s2)-c2ccccc2SC3)CC1	i	-1.8
CC(=O)N1CCCSc2ccc(S(=O)(=O)Nc3ccc(NC(=O)c4ccccc4)c(C)c3)cc21	i	0.24
CCCCS(=O)(=O)N1CCCN(C2=NS(=O)(=O)C(c3ccc(F)cc3)=C2C)CC1	i	0.5
CC1(C)CN(CC(=O)N2CCCC2)c2ccc(S(=O)(=O)Nc3ccc(S(N)(=O)=O)cc3)cc21	i	-0.64
CC(=O)N1CCSc2ccc(S(=O)(=O)Nc3cc(F)ccc3F)cc21	i	0.26
CSc1ccc(-c2noc(CSc3ccc(-c4ccc5c(c4)OCO5)nn3)n2)cc1	i	1.6
Cc1[nH]nc(-c2c(C)sc(C)c2S(=O)(=O)NC2CCC(C)CC2)c1C (stereo not given)	i	-0.95
O=C(CNS(=O)(=O)c1cc(-c2noc(C3CCC3)n2)cs1)Nc1ccc2c(c1)OCO2	i	1.2

Screening data: PubChem, ICCB-Longwood Screening Facility, Harvard Medical School
